Compound activity deposited in PubChem BioAssay by ICCB-Longwood Screening Facility, Harvard Medical School.
GIV Gai3 FP – blocks GIV peptide binding to rat Galpha-i3; P08753; Galpha-i3/FITC-GIV peptide fluorescence polarization, 90 min; stronger effect = lower value; scaled: aluminum fluoride 0%, vehicle 100%; percent of control (FP), % (no concentration beside the values); 0.42% of 210,000 active;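 active means replicate mean at 85% of control or lower, very high polarization wells dropped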;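 further: wells of about 15 µL received 100 nL stock; the first replicate is given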
Target sequence (P08753 whole entry, looked up): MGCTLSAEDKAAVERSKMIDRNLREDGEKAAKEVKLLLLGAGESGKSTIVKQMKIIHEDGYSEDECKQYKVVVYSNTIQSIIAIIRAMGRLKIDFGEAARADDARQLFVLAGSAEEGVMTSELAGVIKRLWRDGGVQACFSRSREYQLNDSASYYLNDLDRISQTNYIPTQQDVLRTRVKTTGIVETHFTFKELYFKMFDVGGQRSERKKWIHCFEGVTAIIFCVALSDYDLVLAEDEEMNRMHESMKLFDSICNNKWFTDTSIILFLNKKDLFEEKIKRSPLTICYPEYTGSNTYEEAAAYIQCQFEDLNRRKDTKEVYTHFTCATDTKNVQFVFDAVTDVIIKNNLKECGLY
Starred values were filed as active, the others as inactive.

Compound | GIV Gai3 FP
Cc1ccc(-c2ccc(Nc3ccc(S(N)(=O)=O)cc3)nn2)cc1S(=O)(=O)N1CCCCC1 | 102.1
COc1ccc(C(=O)Nc2nnc(COc3ccc(Br)cc3)s2)cc1OC | 102.0
O=C(NCCCN1CCC(Cc2ccccc2)CC1)c1ccc2c(c1)ncn2C1CCCCC1 | 107.1
N#CCN1C(=S)N=C(Nc2cccc(C(F)(F)F)c2)C12CCCCC2 | 105.9
O=C1C2C3C=CC(C2C(=O)N1c1ccccc1)C1C2C(=O)N(c4ccccc4)C(=O)C2C31 (centres undefined) | 106.0
Cc1ccc(C)c(CSc2nnc3c(=O)n(-c4ccc(C)c(C)c4)ccn23)c1 | 106.0
CCc1nnc(NC(=O)CSc2nnc(NC(=O)c3cc(Cl)ccc3Cl)s2)s1 | 109.4
COC(=O)c1ccccc1NC(=O)c1ccc(N2CC3CC(C2)c2cccc(=O)n2C3)c(NC(=O)/C=C/c2ccccc2)c1 (centres undefined) | 110.7
CCOC(=O)C1CCN(C(=O)c2c[nH]c3ccc(S(=O)(=O)N(C)c4ccc(Cl)cc4)cc3c2=O)CC1 | 103.8
CN(CC(=O)NCCN1CCc2ccccc2C1)S(=O)(=O)c1cc2c(cc1Cl)NC(=O)CO2 | 108.8
N#Cc1c(SCC(=O)Nc2cccc(F)c2)nc2c(c1-c1ccco1)CCCC2 | 109.2
CCS(=O)(=O)c1ccccc1C(=O)Nc1ccccc1-c1nc2ccccc2[nH]1 | 102.1
O=C(NC1CCCC1)c1cc(NS(=O)(=O)c2ccc3c(c2)CCCC3)cnc1N1CCNCC1 | 99.0
Nc1c(C(=O)Nc2nc(-c3ccccc3)cs2)sc2nc3c(cc12)CCCC3 | 109.2
COc1ccc(CC(=O)N2N=C(C(F)(F)F)CC2(O)c2ccc(F)cc2)cc1OC (centres undefined) | 103.3
Cc1ccc(NC(=O)c2sc3nc(C)nc(N4CCN(C)CC4)c3c2C)c(Br)c1 | 100.1
COc1ccccc1C1c2c(-c3ccc(C)cc3)n[nH]c2C(=O)N1c1ccc(F)cc1 (centres undefined) | 99.6
CC(C)(C)OC(=O)CSc1nc2c(c(-c3cccs3)c1C#N)CCC2 | 104.4
O=C(c1cc(S(=O)(=O)N2CCSCC2)ccc1Cl)N1CCN(c2ccccc2)CC1 | 100.2
COc1ccc(S(=O)(=O)Nc2cccc(-c3nnc(Cc4ccc5c(c4)OCO5)o3)c2)cc1 | 100.8
Cc1ccc(/C(=N\O)c2oc3c(C)c4oc(=O)cc(C)c4cc3c2C)cc1 | 107.4
Cc1ccc(Nc2c(C(=O)NC3CCCC3)cnc3c2c(C)nn3C)cc1 | 103.1
Cc1cc(C)n(-c2nnc(C)n2/N=C/c2ccc(Br)cc2)n1 | 108.6
COc1ccc(Cl)cc1NS(=O)(=O)c1cc(-c2nc(C(C)(C)C)cs2)cs1 | 103.6
COc1ccc(-c2cn3c4c(=O)n(C)c(=O)n(C)c4nc3n2-c2ccc(C)cc2)cc1 | 115.5
CC(C)CCNC(=O)c1ccc(-c2cccnc2)cc1 | 98.8
CC(C)(C)C(=O)N1CCN(c2ccc(N3CCCC3)nn2)CC1 | 105.3
COc1ccc(NC(=O)c2c(NC(=O)c3cccc(C)c3)sc3c2CCCCC3)cc1 | 103.3
Cc1ccc2c(c1Br)C1(C(=O)N2)C(C#N)=C(N)Oc2n[nH]c(-c3ccc(F)cc3)c21 (centres undefined) | 115.4
CC(C)(C)NC(=O)c1ccc(C2Nc3ccccc3S(=O)(=O)N2)cc1 (centres undefined) | 101.7

Next part, starting with the last 2 of the part before.
Compound | GIV Gai3 FP
Cc1ccc2c(c1Br)C1(C(=O)N2)C(C#N)=C(N)Oc2n[nH]c(-c3ccc(F)cc3)c21 (centres undefined) | 115.4
CC(C)(C)NC(=O)c1ccc(C2Nc3ccccc3S(=O)(=O)N2)cc1 (centres undefined) | 101.7
CCOC(=O)CNC(=O)N1CCC(CN2CCC(C)CC2)CC1 | 101.1
c1ccc(Nc2nc(NCc3ccco3)nc(Nc3ccccc3)n2)cc1 | 105.7
COCCNC(=O)c1ccc2c(=O)n(Cc3ccco3)c(SCC(=O)Nc3ccccc3Cl)nc2c1 | 109.5
Cc1nn(-c2ccc3nnc(C)n3n2)c2c1C(c1ccccc1OCc1ccc(F)cc1)CC(=O)N2 (centres undefined) | 100.4
COc1ccc(C(OCC2OC(n3ccc(NC(=O)c4ccccc4)nc3=O)C(O[Si](C)(C)C(C)(C)C)C2O)(c2ccccc2)c2ccccc2)cc1 (centres undefined) | 105.6
CCOC(=O)C1=NN(c2ccc(C)cc2)C2C(=O)N(c3ccccc3[N+](=O)[O-])C(=O)C12 (centres undefined) | 104.4
Cn1c(=O)n(C)c2cc(S(=O)(=O)NCC3CCCO3)ccc21 (centres undefined) | 106.4
COc1ccc(C2CC(=O)NC(SCC(=O)Nc3ccc(Br)cc3)=C2C#N)cc1OC (centres undefined) | 103.0
CC(C)Cn1c(CNS(=O)(=O)c2cccc3nsnc23)nc2cccnc21 | 104.6
CCn1c(CCc2ccc(NS(=O)(=O)c3ccccc3)cc2)nc2ccccc21 | 100.2
CCc1ccccc1N1C(=O)C2C(c3ccccc3Cl)OC3(C(=O)c4ccccc4C3=O)C2C1=O (centres undefined) | 108.0
CCC(=O)N1c2c(C)cc(C)cc2C(=C2SC(C(=O)OC)=C(C(=O)OC)S2)C(=S)C1(C)C | 102.8
Cc1ccccc1NC(=O)N1CCN(Cc2cc(=O)n3nc(-c4ccccc4)sc3n2)CC1 | 99.2
COCCNS(=O)(=O)c1cc(-c2nnc(C)o2)cs1 | 111.2
O=C(CN1C(=O)COc2ccc(S(=O)(=O)N3CCCC3)cc21)NCc1ccccc1 | 103.6
COc1ccc(-n2nc3c(c2NC(=O)c2ccc(S(=O)(=O)N4CCCC4)cc2)CS(=O)(=O)C3)cc1 | 106.0
COCCCNC(=O)c1cnc2c(C)cccn2c1=O | 98.7
O=C(Nc1ccc2c(c1)OCCO2)N1CCC(N2CCN(Cc3cccc(F)c3)C(=O)C2=O)CC1 | 103.7
COc1ccc(NC(=O)CSc2nc(N3CCc4ccccc4C3)nc3ccccc23)cc1OC | 113.3
Cc1nc(-c2cc(NC(=O)c3cccc(Cl)c3)c(C)s2)no1 | 99.5
CCOC(=O)C1=NN(c2ccc(Br)cc2)C2(S1)c1ccccc1C(c1ccccc1)=NN2c1ccccc1 (centres undefined) | 108.8
CCOc1ccc(NC(=O)CSC2=C(C#N)C(c3ccncc3)C(C(=O)Nc3ccc(Cl)cc3)=C(C)N2)cc1 (centres undefined) | 108.7
CCOCCCNC(=O)c1ccc2c(c1)ncn2-c1ccc(OCc2ccccc2)cc1 | 102.1
O=S(=O)(Nc1cccn2c(C3CCC3)nnc12)c1ccc2c(c1)OCCO2 | 123.3
CCOC(=O)C(=O)N1c2c(C)cccc2-c2c(ssc2=S)C1(C)C | 114.5
CC12c3ccccc3C(c3ccccc31)C1C(=O)N(c3cccc(C(F)(F)F)c3)C(=O)C12 (centres undefined) | 107.1
CCc1cc(C2CCCN2Cc2cc(Cl)ccc2O)on1 (centres undefined) | 95.8
CCSc1nnc(-c2nn(C)c3c2CN(S(=O)(=O)c2ccc(F)cc2)CC3)n1CC | 105.6
CCOC(=O)C1=CN(c2ccc(OCC)cc2)C=C(C(=O)OCC)C1c1ccc(OC)c(OC)c1 | 105.5
O=S(=O)(c1ccc(-c2nnc(C3CC3)o2)o1)N1CCN(c2ccccc2)CC1 | 98.1

3 entries out of the list, ordered by SMILES length, low to high.
Compound | GIV Gai3 FP
CCc1cc(C2CCCN2Cc2cc(Cl)ccc2O)on1 (centres undefined) | 95.8
Cc1nc(-c2cc(NC(=O)c3cccc(Cl)c3)c(C)s2)no1 | 99.5
CCc1ccccc1N1C(=O)C2C(c3ccccc3Cl)OC3(C(=O)c4ccccc4C3=O)C2C1=O (centres undefined) | 108.0

(list continues)
Compound | GIV Gai3 FP
Cc1ccc(S(=O)(=O)c2nc(C)oc2NCc2ccco2)cc1 | 109.2
CCn1ncc(NC(=O)Cc2ccccc2Cl)c(N2CCCCC2)c1=O | 105.9
Cc1ccc(S(=O)(=O)N2CCC3(CC2)NCCN=C3NCc2cc(F)cc(F)c2)cc1 | 105.3
O=C(c1ccc(F)c(F)c1)N1CCc2c([nH]c3ccccc23)C1c1ccc(Cl)cc1 (centres undefined) | 105.7
O=C(NCc1csc(-c2ccccc2)n1)[C@H]1CSCN1C(=O)C1CCCO1 (some centres undefined) | 104.7
Cc1cc(C2CCCN2C(=O)c2cc(C(F)(F)F)n(C)n2)on1 (centres undefined) | 97.5
CCc1c(C)nc2ncnn2c1NC1CCN(C)CC1 | 105.1
Cc1ccc(-c2c(N3CCC(C)CC3)c(=O)c2=O)cc1 | 100.9
COc1ccc(C(=O)CSC2=NS(=O)(=O)c3cc(F)ccc3N2)cc1 | 98.6
O=C(C1CCCN(c2nn3c(=O)c4c(nc3s2)CCCC4)C1)N1CCN(c2ccccc2)CC1 (centres undefined) | 98.2
Fc1ccc(-n2ncc3c(NCCN4CCOCC4)ncnc32)cc1 | 108.9
CCOC(=O)C1=C(O)/C(=C/c2ccc(OC)c(OC)c2)SC1=Nc1ccc([N+](=O)[O-])cc1 | 116.5
CCc1cc(C2CCCN2C(=O)c2cc(-c3ccc4c(c3)OCO4)on2)on1 (centres undefined) | 99.1
CCOC(=O)c1sc2ncnc(N(C)Cc3ccccc3)c2c1C | 101.2
Cn1c2c(c(=O)n(C)c1=O)C(c1cccc([N+](=O)[O-])c1)Nc1ccccc1O2 (centres undefined) | 106.6
CN(C)CC(=O)N1c2ccccc2CCc2ccc(N)cc21 | 103.8
CC1CCC(NS(=O)(=O)c2ccc(-c3cnc(C4CCC4)o3)s2)CC1 (centres undefined) | 110.0
COc1ccc2oc(-c3noc(-c4cncc(Br)c4)n3)c(C)c2c1 | 101.7
CCc1ccc2c(c1)[C@H]1OCC[C@H]1C(c1cc(Br)c(OC)c(OC)c1)N2 (some centres undefined) | 102.9
CCSCCOC(=O)C1=C(C)NC2=C(C(=O)CC(c3ccccc3OC)C2)C1c1cc(OC)c(OC)c(OC)c1 (centres undefined) | 114.8
O=S(=O)(c1ccc(F)cc1)N1CCn2cccc2C1c1ccc(F)c(F)c1 (centres undefined) | 107.9
Fc1ccc(-c2cn3nc(-c4ccccc4)c(-c4ccccc4)nc3n2)cc1 | 106.0
NC(=O)C1CCN(C(=O)c2ccc3c(=O)n(Cc4ccco4)c(SCc4cccc([N+](=O)[O-])c4)nc3c2)CC1 | 108.2
Nc1nonc1-n1nnc(C(=O)N/N=C\C2CC=CCC2)c1CN1CCCCCC1 (centres undefined) | 99.0
Cc1ccccc1NC(=O)C1CCCN(S(=O)(=O)Cc2ccc(F)cc2)C1 (centres undefined) | 102.6
O=C1CC(c2ccccc2Cl)c2ccc3ccccc3c2N1 (centres undefined) | 100.7
Cc1cccc2c1N(C(=O)c1cccc([N+](=O)[O-])c1)C(C)(C)c1ssc(=S)c1-2 | 106.0
CC(Nc1ncnc2c1oc1ccccc12)C(=O)O (centres undefined) | 105.6
Cc1c(C(=O)Nc2ccc3c(c2)OCO3)sc2ncn(CC(=O)Nc3cccc(C(F)(F)F)c3)c(=O)c12 | 101.8
COc1ccc(/C=C2\C=C(c3ccccc3)N(c3ccc(Cl)cc3Cl)C2=O)cc1Br | 103.0

Following part.
Compound | GIV Gai3 FP
O=C(Nc1ccc2c(c1)Sc1ccccc1C(=O)N2C1CC1)C1CCC1 | 102.8
COc1ccc(CN2CCCC2c2cc(C(C)C)on2)cc1CN1CCOCC1 (centres undefined) | 105.1
COc1ccc(C(=O)Nn2c(SCC(=O)NCCc3ccccc3)nc3ccccc3c2=O)cc1 | 102.8
COc1cc(/C=N/n2cnnc2-n2nc(C)cc2C)cc([N+](=O)[O-])c1O | 107.0
N#CC1(C#N)C(c2ccc(Cl)cc2Cl)C(C(=O)c2ccccc2)N2C=Cc3ccccc3C21 (centres undefined) | 109.4
Cc1ccc(C(=O)N2CCc3ccc(CNC(=O)NC(C)(C)C)cc32)cc1 | 104.3
O=C1/C(=C\c2cccnc2)SC(=Nc2ccccc2)N1CCc1ccccc1 | 106.8
CCCc1cc(C2CCCN2Cc2cccc(Cl)c2)no1 (centres undefined) | 98.0
CCCCN(CCCC)Cc1c(C(=O)OCC)nnn1-c1nonc1N | 118.4
CCOC(=O)c1cccc(NS(=O)(=O)c2c(C)nn(-c3ccc(-c4ccccc4)nn3)c2C)c1 | 105.0
Cc1ccc(NC(=O)CSc2nc(=O)n(Cc3ccncc3)c3c2CCC3)cc1F | 105.2
CCc1cc2c(N3CCCC(C(=O)NCCN4CCCCC4)C3)ncnc2s1 (centres undefined) | 111.8
CC(=O)N1CCCc2cc(S(=O)(=O)N3CCC(C(=O)NCCN4CCc5ccccc5C4)CC3)ccc21 | 98.0
Cc1noc(C)c1C1CCCN1C(=O)NCCC(C)C (centres undefined) | 99.4
COc1ccc(Br)c(C(=O)Nc2ccc(-n3c(C)nc4ccccc4c3=O)cc2)c1 | 108.3
O=C(NC1CC1)c1ccc2c(c1)nc1n2CCCCC1 | 98.9
CCOC(=O)c1c(NC(=O)C(C)Sc2nnc(CNC(=O)c3ccccc3F)n2Cc2ccccc2)sc2c1CCC2 (centres undefined) | 114.5
COC(=O)C1C(=O)NC(SCC(=O)Nc2ccc(OC)cc2)=C(C#N)C1c1ccc(C)cc1 (centres undefined) | 103.3
COc1ccc(NS(=O)(=O)c2cnc(N)nc2)cc1 | 99.1
Cc1cc(SCC(=O)Nc2ccc3c(c2)OCO3)nc2ccc(S(=O)(=O)N(C)C)cc12 | 101.6

Not a retest: 2 of the compounds above.
Compound | GIV Gai3 FP
O=C(Nc1ccc2c(c1)Sc1ccccc1C(=O)N2C1CC1)C1CCC1 | 102.8
COc1ccc(CN2CCCC2c2cc(C(C)C)on2)cc1CN1CCOCC1 (centres undefined) | 105.1

An excerpt; the hit share may differ from the screen's.
